Lassa entry inh – inhibitors of Lassa virus binding or cell entry; Potency, µM (highest dose often 37.9 µM), for inactives: at the top dose activity change, negative = inhibition, hits mostly inhibitors; Lassa virus pseudotype entry inhibition, cell reporter; control for the full effect not named in the record; 1.2% of 300,000 active; active means well fitted inhibition curve with a large enough effect; inconclusive means small, poorly fitted or top-dose-only effect, or effect the other way; inactive means flat fitted curve, though single readings scatter; tested in HEK293 cells; note: % is set by controls: 0 for no effect and ±100 for the full control effect; nearly all actives have a fitted effect of over 50% in size; luciferase read-out
StopGo reporter – lowers the luciferase signal of an FMDV 2A StopGo reporter; human cells with a luciferase reporter of 2A StopGo recoding; control for the full effect not named in the record; Potency, µM (titrated, usually from 57.9 µM), for the others: at the top dose signal change, negative = less light; 1.2% of 410,000 active; AID 1159524; active = well fitted falling curve with a large enough effect; inconclusive = small, poorly fitted or top-dose-only effect; inactive = no such curve, though single readings can be large or run the other way; tested in HEK293T cells; note: % is set by controls: 0 for no effect and ±100 for the full control effect; nearly all actives have a fitted effect of over 45% in size; luciferase light after 4 h
RE007 growth inh – less growth of the S. pombe RE007 Vpr strain; S. pombe RE007 Vpr strain, BacTiter-Glo ATP luminescence, 24 h; control for the full effect not named in the record; Potency, µM (titrated, usually from 92.2 µM), without a hit: top-dose activity change, negative = less growth; 0.21% of 360,000 active; AID 651644; active = well fitted falling curve with a large enough effect; inconclusive = small, poorly fitted or top-dose-only effect; inactive = no such curve, though single readings can be large or run the other way;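 note: % is set by controls: 0 for no effect and ±100 for the full control effect; nearly all actives have a fitted effect of over 50% in size; the assay follows cell death caused by Vpr and the record does not say whether a fall means rescue or toxicity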
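Fission yeast strain RE007, carrying one chromosomally integrated HIV-1 vpr copy, was seeded at OD 0.01 in PMG+AL medium with 23 nL pinned compound. After 24 h at 30 °C and 99% humidity, viability was read by BacTiter-Glo luminescence.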
Cruzain inh noDet – cruzain (T. cruzi) inhibition without detergent; purified cruzain, Z-FR-AMC fluorescence, no detergent; Potency, µM, without a hit: max response, negative = inhibition, actives largely listed as inhibitors; 2.3% of 200,000 active; AID 1476; active = well fitted curve in the direction sought with a large enough effect; inconclusive = small, poorly fitted or top-dose-only effect, or another doubt; inactive = no such curve, though single readings can be large; an effect the other way counts as inactive or inconclusive;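 note: plate controls were enzyme without inhibitor for no effect and buffer without enzyme for full effect; nearly all actives have a fitted effect of over 40% in size; top concentration of the series not given in the record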
Target sequence (P25779 123-467 limits assumed): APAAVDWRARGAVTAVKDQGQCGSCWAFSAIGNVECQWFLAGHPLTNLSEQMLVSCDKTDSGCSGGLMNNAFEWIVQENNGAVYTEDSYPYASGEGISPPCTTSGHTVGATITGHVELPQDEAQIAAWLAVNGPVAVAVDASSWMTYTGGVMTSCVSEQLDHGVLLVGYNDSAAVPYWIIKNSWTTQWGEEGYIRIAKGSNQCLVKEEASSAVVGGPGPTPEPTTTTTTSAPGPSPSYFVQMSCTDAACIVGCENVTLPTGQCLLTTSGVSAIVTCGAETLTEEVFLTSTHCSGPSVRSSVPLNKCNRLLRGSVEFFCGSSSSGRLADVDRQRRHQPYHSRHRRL
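Detergent-free condition (0.00005% Triton X-100) in acetate buffer pH 5.5 with DTT. 1.5 nM enzyme and compound were pre-mixed 15 min, then 2 uM Z-FR-AMC substrate added; reaction progress from fluorescence change between first and third reads (60 s).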
Cruzain inh Det – cruzain (T. cruzi) inhibition with detergent; P25779; purified cruzain, Z-FR-AMC fluorescence, 0.01% Triton; Potency, µM, for inactives: max response, negative = inhibition, actives largely listed as inhibitors; 0.43% of 200,000 active; AID 1478; active = well fitted curve in the direction sought with a large enough effect; inconclusive = small, poorly fitted or top-dose-only effect, or another doubt; inactive = no such curve, though single readings can be large; an effect the other way counts as inactive or inconclusive;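 note: plate controls were neutral wells for no effect and buffer without enzyme for full effect; nearly all actives have a fitted effect of over 40% in size; top concentration of the series not given in the record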
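Detergent-containing arm of a paired screen for aggregation-based inhibition: 0.01% Triton X-100 present. Cruzain at 1.5 nM cleaved 2 uM Z-FR-AMC at pH 5.5 with 5 mM DTT; AMC fluorescence gain over 60 s measured activity.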
SARS PLpro yeast – blocks SARS-CoV papain-like protease in a yeast assay; Potency, µM (top dose mostly 32.9 µM), for the others: at the highest dose activity, positive = growth rescue; S. cerevisiae expressing SARS-CoV PLpro, growth rescue; control for the full effect not named in the record; 0.19% of 330,000 active; note: 0% is about no effect; nearly all actives have a fitted effect of over 55% in size; growth read by luminescence after 48 h
NS1 function inh – influenza NS1 inhibition; Potency, µM (titrated, usually from 46.1 µM), for the others: top-dose activity, positive = more growth; S. cerevisiae slowed by influenza A NS1, growth recovery by OD600; AID 2326; 0.4% of 270,000 active; note: actives are rising curves; nearly all actives have a fitted effect of over 50% in size
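Growth recovery, yeast-based: influenza A NS1 expressed in S. cerevisiae causes slow growth, and suppressors are detected by OD600. The parent strain without NS1 is used as positive control.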
Marburg entry inh – blocks Marburg virus binding to or entry into cells; Marburg virus pseudotyped entry inhibition, cell reporter; control for the full effect not named in the record; about a third of the inactives were read at about 46 µM; Potency, µM (highest dose often 37.8 µM), for the others: at the highest dose activity change, negative = inhibition, hits mostly inhibitors; 1.8% of 300,000 active; AID 540276; active = well fitted inhibition curve with a large enough effect; inconclusive = small, poorly fitted or top-dose-only effect, or effect the other way; inactive = flat fitted curve, though single readings scatter; tested in HEK293 cells; about a fifth of its hits are not listed in these tables; note: % is set by controls: 0 for no effect and ±100 for the full control effect; luciferase read-out
The depositor's hits bear a star; [ ] = another dose, or the depositor's remark. Unless noted, calls come from the whole dose curve; as a rule, active means well fitted rising curve with a large enough effect; inconclusive means small, poorly fitted or top-dose-only effect; inactive means no such curve, though single readings can be large or run the other way. Potency is the fitted concentration of half-maximal effect.

Results for O=C(NCCc1ccc([N+](=O)[O-])cc1)c1ccccc1 ?
StopGo reporter: 3%; RE007 growth inh: -8%; SARS PLpro yeast: -1%; NS1 function inh: -1%

Results for O=C(c1ccccc1F)N(Cc1ccc(F)cc1)C1CCS(=O)(=O)C1 (stereo unspecified) ?
Lassa entry inh: 26%; StopGo reporter: -8%; RE007 growth inh: -3%; Cruzain inh noDet: 11%; Cruzain inh Det: 4.3%; SARS PLpro yeast: -3%; NS1 function inh: 1%; Marburg entry inh: -8%

How did O=C(c1cc2c(=O)n3ccccc3nc2s1)N1CCN(c2cccc(Cl)c2)CC1 do in these assays?
Lassa entry inh: -11%; StopGo reporter: inconclusive; RE007 growth inh: 11%; SARS PLpro yeast: -2%; NS1 function inh: 13%; Marburg entry inh: inconclusive

Results for COc1ccccc1NS(=O)(=O)c1ccc2ccccc2c1 ?
StopGo reporter: 16%; RE007 growth inh: 4%; SARS PLpro yeast: -7%; NS1 function inh: -5%

How did O=C(NCc1ccc2c(c1)OCO2)C1CCC(CNc2c(N3CCCCC3)c(=O)c2=O)CC1 (stereo unspecified) do in these assays?
StopGo reporter: -16%; RE007 growth inh: -2%; Cruzain inh noDet: 0%; Cruzain inh Det: -3.9%; SARS PLpro yeast: 2%; NS1 function inh: -32%; Marburg entry inh: -1%

Results for CCCCN(CC)CCNC(=O)C1CCCN(c2ncnc3onc(C)c23)C1 (stereo unspecified) ?
Lassa entry inh: 2%[46.1 µM]; StopGo reporter: -4%; Cruzain inh noDet: -10%; Cruzain inh Det: -1.6%

How did COc1ccc(/C=N/OCC(=O)NC(c2ccccc2)c2ccccc2)c(OC)c1 do in these assays?
Lassa entry inh: 2.2µM*; StopGo reporter: inconclusive; RE007 growth inh: 16%; Cruzain inh noDet: 3%; Cruzain inh Det: -5.3%; SARS PLpro yeast: -20%; NS1 function inh: -29%; Marburg entry inh: inconclusive

Results for Cc1ccc(C)c(NC(=S)NC(C)C(c2ccccc2)N2CCN(C)CC2)c1 (stereo unspecified) ?
Lassa entry inh: -22%; StopGo reporter: -2%; RE007 growth inh: 5%; SARS PLpro yeast: 1%; NS1 function inh: 2%; Marburg entry inh: inconclusive

How did CCC(C(=O)OCC(=O)Nc1cc(Cl)ccc1Cl)c1ccccc1 (stereo unspecified) do in these assays?
Lassa entry inh: 9%; StopGo reporter: -25%; Cruzain inh noDet: -10%; Cruzain inh Det: -8.9%; SARS PLpro yeast: -10%; NS1 function inh: -14%; Marburg entry inh: inconclusive

How did COc1ccc(N2C(S)=C(C#N)C(=O)NC2c2ccc(OC)c(OC)c2)cc1 (stereo unspecified) do in these assays?
Lassa entry inh: 3%[46.1 µM]; StopGo reporter: 14%; RE007 growth inh: 4%; SARS PLpro yeast: -1%; NS1 function inh: 3%; Marburg entry inh: -1%[46.1 µM]

How did CCc1cccc2c(C(=O)COC(=O)/C=C/c3ccc(O)c(OC)c3)c[nH]c12 do in these assays?
Lassa entry inh: inconclusive; StopGo reporter: inconclusive; RE007 growth inh: 4%; Cruzain inh noDet: -3%; Cruzain inh Det: -11%; SARS PLpro yeast: -1%; NS1 function inh: -2%; Marburg entry inh: inconclusive

Results for COc1ccc(C2SCCN2S(=O)(=O)c2ccc(NC(C)=O)cc2)cc1 (stereo unspecified) ?
Lassa entry inh: inconclusive; RE007 growth inh: -5%; Cruzain inh noDet: 2%; Cruzain inh Det: 0.8%; SARS PLpro yeast: -1%; NS1 function inh: -4%; Marburg entry inh: -27%

How did COC(=O)c1[nH]c2cccc(Cl)c2c1NC(=O)CN1CCN(CCO)CC1 do in these assays?
Lassa entry inh: 0%; StopGo reporter: 10%; RE007 growth inh: -1%; Cruzain inh noDet: -7%; Cruzain inh Det: 0.9%; SARS PLpro yeast: 1%; NS1 function inh: -1%; Marburg entry inh: 4%

Results for COc1ccc(C2=NN(c3nc(-c4ccc(CNC(C)=O)cc4)cs3)C(c3ccco3)C2)cc1 (stereo unspecified) ?
Lassa entry inh: 2%[46.1 µM]; StopGo reporter: 13%; RE007 growth inh: -27%; SARS PLpro yeast: -2%; NS1 function inh: 16%; Marburg entry inh: inconclusive

Results for CN(C)C(CNC(=O)CN1C(=O)NC2(CCc3ccccc32)C1=O)c1ccco1 (stereo unspecified) ?
Lassa entry inh: -12%; StopGo reporter: -4%; RE007 growth inh: 0%; Cruzain inh noDet: -4%; Cruzain inh Det: -1.2%; SARS PLpro yeast: inconclusive; NS1 function inh: -1%; Marburg entry inh: 1%

Results for CCn1cc(C2=NOC(C(=O)Nc3cccc(C(C)=O)c3)C2)c(C)n1 (stereo unspecified) ?
Lassa entry inh: -2%; StopGo reporter: inconclusive; RE007 growth inh: 12%; Cruzain inh noDet: 0%; Cruzain inh Det: -1.1%; SARS PLpro yeast: 12%; NS1 function inh: 1%; Marburg entry inh: -30%

How did CCCc1cc(=O)[nH]c(SCC(=O)Nc2c(C)cccc2C)n1 do in these assays?
Lassa entry inh: 13%; StopGo reporter: 9%; RE007 growth inh: 6%; Cruzain inh noDet: -1%; Cruzain inh Det: 2.9%; SARS PLpro yeast: 5%; NS1 function inh: 1%; Marburg entry inh: 1%

How did O=C(Nc1c(C(=O)O)oc2ccccc12)c1ccc(C(F)(F)F)cc1 do in these assays?
Lassa entry inh: 4%[46.1 µM]; StopGo reporter: 28%; Cruzain inh noDet: -1%; Cruzain inh Det: -13%

How did COc1ccc(C2C(C#N)=C(/N=C/N3CCOCC3)OC3=C2C(=O)CC(C)(C)C3)cc1OC (stereo unspecified) do in these assays?
Lassa entry inh: 5%; StopGo reporter: 10%; RE007 growth inh: 4%; Cruzain inh noDet: inconclusive; Cruzain inh Det: -2.5%; SARS PLpro yeast: -4%; NS1 function inh: -5%; Marburg entry inh: 0%

What do the screens show for `O=C(c1ccc2c(c1)OCO2)N1CCOCC1`?
Lassa entry inh: -12%; RE007 growth inh: 4%; Cruzain inh noDet: 11%; Cruzain inh Det: 2.0%; SARS PLpro yeast: -6%; NS1 function inh: 8%; Marburg entry inh: inconclusive

Copied from above (2 entries):
Results for COc1ccc(C2SCCN2S(=O)(=O)c2ccc(NC(C)=O)cc2)cc1 (stereo unspecified) ?
Lassa entry inh: inconclusive; RE007 growth inh: -5%; Cruzain inh noDet: 2%; Cruzain inh Det: 0.8%; SARS PLpro yeast: -1%; NS1 function inh: -4%; Marburg entry inh: -27%

How did COC(=O)c1[nH]c2cccc(Cl)c2c1NC(=O)CN1CCN(CCO)CC1 do in these assays?
Lassa entry inh: 0%; StopGo reporter: 10%; RE007 growth inh: -1%; Cruzain inh noDet: -7%; Cruzain inh Det: 0.9%; SARS PLpro yeast: 1%; NS1 function inh: -1%; Marburg entry inh: 4%

Further structures
How did CCOc1ccc(Cn2c(CNS(=O)(=O)c3cccc(Cl)c3)nc3cccnc32)cc1 do in these assays?
Lassa entry inh: -7%[46.1 µM]; StopGo reporter: 53%[activator]; Cruzain inh noDet: -13%; Cruzain inh Det: -3.7%

Results for CCSc1nc2sc3c(c2c(=O)n1-c1ccc(C)cc1)CCCC3 ?
Lassa entry inh: 19%[46.1 µM]; StopGo reporter: -22%; Cruzain inh noDet: -4%; Cruzain inh Det: -0.8%

Results for Nc1nc(-c2ccccc2)c(N=Nc2ccc(Cl)cc2)s1 ?
Lassa entry inh: 8%; StopGo reporter: -19%; RE007 growth inh: -3%; Cruzain inh noDet: -26%; Cruzain inh Det: -2.5%; SARS PLpro yeast: -28%; NS1 function inh: 6%; Marburg entry inh: inconclusive

Results for O=C(N/N=C\c1cc(Br)cs1)C1COc2ccccc2O1 (stereo unspecified) ?
Lassa entry inh: -1%; StopGo reporter: 4%; RE007 growth inh: -18%; Cruzain inh noDet: -12%; Cruzain inh Det: -7.8%; SARS PLpro yeast: -2%; NS1 function inh: -44%; Marburg entry inh: inconclusive

Results for COc1ccc(OCC(=O)NNC(=O)C2CCC2)cc1 ?
Lassa entry inh: -11%; StopGo reporter: 2%; RE007 growth inh: 5%; SARS PLpro yeast: 0%; Marburg entry inh: -3%

Results for CC(=O)N(CCCN1CCOCC1)Cc1ccncc1 ?
Lassa entry inh: inconclusive; StopGo reporter: -5%; RE007 growth inh: 3%; Cruzain inh noDet: -2%; Cruzain inh Det: 2.7%; SARS PLpro yeast: -8%; NS1 function inh: 7%; Marburg entry inh: 1%

How did CN(C)c1ccc(NC(=O)c2cc3c(=O)n4ccccc4nc3n2C)cc1 do in these assays?
Lassa entry inh: 1%; StopGo reporter: -18%; RE007 growth inh: -9%; NS1 function inh: 3%; Marburg entry inh: -23%

How did Cc1ccc(NC(=S)N(CCN2CCCCC2)Cc2ccco2)cc1 do in these assays?
Lassa entry inh: inconclusive; StopGo reporter: 24%; RE007 growth inh: -9%; Cruzain inh noDet: 3%; Cruzain inh Det: -1.1%; SARS PLpro yeast: -5%; NS1 function inh: 18%; Marburg entry inh: inconclusive

What do the screens show for `CN(CCC1CCCCO1)Cc1cn(C)nc1-c1ccc2c(c1)OCCO2` (stereo unspecified)?
StopGo reporter: 1%; RE007 growth inh: 2%; SARS PLpro yeast: 0%; NS1 function inh: -3%

How did c1ccc(C2=Nn3c(nnc3-c3cccnc3)SC2)cc1 do in these assays?
Lassa entry inh: -1%; StopGo reporter: -6%; RE007 growth inh: 6%; Cruzain inh noDet: -13%; Cruzain inh Det: -1.3%; SARS PLpro yeast: -1%; NS1 function inh: -4%; Marburg entry inh: -32%

What do the screens show for `C/C(=N\NC(=O)CSc1nc(C)cc(C)n1)c1ccc([N+](=O)[O-])cc1`?
Lassa entry inh: 12%[46.1 µM]; StopGo reporter: -30%; RE007 growth inh: -9%; SARS PLpro yeast: 0%; NS1 function inh: 3%; Marburg entry inh: 20%[46.1 µM]

How did O=C(Cc1ccsc1)N1CCc2c([nH]c3ccccc23)C1c1ccccn1 (stereo unspecified) do in these assays?
Lassa entry inh: inconclusive; StopGo reporter: 0%; RE007 growth inh: 0%; SARS PLpro yeast: 1%; NS1 function inh: -8%; Marburg entry inh: inconclusive
